From PubChem BioAssay
TRPML1 inh = qHTS for Inhibitors of the Human Mucolipin Transient Receptor Potential 1 (TRPML1); Mucolipin-1 (Homo sapiens), Q9GZU1; TRPML1-inducible cells, Ca2+ dye fluorescence, FDSS; active compounds read low; inhibition of EC80 agonist-evoked calcium signal; activity change, negative = inhibition, % (concentration not given with the values); 390,000 compounds, 0.02% hits; in the data active means activity change below about -50%; inconclusive means about -30% to -50%; inactive means above about -30%;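 further: stimulus is agonist 54-4 at its EC80 concentration; on the % scale 0 is the no-effect control and ±100 the full control effect; the text of the record puts the active cut at -80%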
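TRPML1-DL cells, Tet-induced overnight (~16 h, 37 °C) at 1,500 cells/well, were loaded with Ca8 no-wash dye plus quencher for 45-90 min at room temperature. Compounds were pinned during FDSS kinetic reading; agonist 54-4 at EC80 (4 uM final) then added.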
D2 agonist = Beta-Arrestin HTS for Positive Allosteric Modulators of the Human D2 Dopamine Receptor: Agonists; D(2) dopamine receptor (Homo sapiens), P14416; DiscoveRx PathHunter D2 beta-arrestin, luminescence, 90 min; 100% = 57 uM dopamine signal; activation, % (concentration not given with the values); 360,000 compounds, 0.084% hits; AID 624465, 2012; in the data active = activation above about 40%; inconclusive = about 15% to 40%; inactive = below about 15%; further: the text of the record calls up to 30% inactive
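Agonist mode: compounds alone added to overnight-plated D2 PathHunter cells for 90 min at 37 C, with 57 uM final dopamine (EC100) defining full response. Beta-arrestin recruitment detected by chemiluminescent reagent, read after 1 h at ambient temperature.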
TRPML1 agonist = qHTS for Agonists of the Human Mucolipin Transient Receptor Potential 1 (TRPML1); Mucolipin-1 (Homo sapiens), Q9GZU1; TRPML1-expressing cells, Ca2+ dye fluorescence, FDSS; host cell line not named in the record; reference of the full effect not given here; activation, % (no concentration beside the values); 410,000 compounds, 0.12% hits; AID 624414, 2012; in the data active = activation above about 50%; inconclusive = about 30% to 50%; inactive = below about 30%; further: 0% is about no effect; the text of the record puts the active cut at 80%
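Tet-induced TRPML1-DL cells, 1,500 per well, cultured overnight, were loaded with a no-wash Ca2+ dye for 45–90 min. Calcium fluorescence was recorded on the FDSS for 110 s after compound addition, before the EC80 agonist (4 uM 54-4) was added.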
Six1-Eya2 blk = qHTS Assay for Inhibitors of the Six1/Eya2 Interaction. Homeobox protein SIX1 (Homo sapiens) + Protein phosphatase EYA2 (Homo sapiens), …. 360,000 compounds, 0.56% hits. activity change, % (test concentration not listed). AlphaScreen GST-Six1/His-Eya2 binding, biochemical; active compounds read low; control for the full effect not named in the record. AID 651725, 2012; in the data active = activity change below about -65%; inconclusive = about -30% to -65%; inactive = above about -30%; further: on the % scale 0 is the no-effect control and ±100 the full control effect
Target sequence (O00167 whole entry, looked up): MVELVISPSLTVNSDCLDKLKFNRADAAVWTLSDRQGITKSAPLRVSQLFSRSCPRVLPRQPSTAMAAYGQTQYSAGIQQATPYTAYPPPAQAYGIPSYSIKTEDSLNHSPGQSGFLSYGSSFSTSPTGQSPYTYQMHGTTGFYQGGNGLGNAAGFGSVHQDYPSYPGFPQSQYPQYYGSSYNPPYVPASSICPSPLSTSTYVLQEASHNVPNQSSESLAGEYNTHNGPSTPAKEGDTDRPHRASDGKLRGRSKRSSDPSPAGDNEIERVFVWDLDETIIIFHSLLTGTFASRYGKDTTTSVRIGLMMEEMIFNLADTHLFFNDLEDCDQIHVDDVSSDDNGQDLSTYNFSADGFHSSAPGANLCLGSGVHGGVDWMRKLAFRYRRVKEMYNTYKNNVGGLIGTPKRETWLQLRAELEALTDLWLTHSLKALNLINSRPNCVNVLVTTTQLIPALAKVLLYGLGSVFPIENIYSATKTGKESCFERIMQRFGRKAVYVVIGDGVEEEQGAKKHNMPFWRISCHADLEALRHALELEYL
Target sequence (Q15475 whole entry, looked up): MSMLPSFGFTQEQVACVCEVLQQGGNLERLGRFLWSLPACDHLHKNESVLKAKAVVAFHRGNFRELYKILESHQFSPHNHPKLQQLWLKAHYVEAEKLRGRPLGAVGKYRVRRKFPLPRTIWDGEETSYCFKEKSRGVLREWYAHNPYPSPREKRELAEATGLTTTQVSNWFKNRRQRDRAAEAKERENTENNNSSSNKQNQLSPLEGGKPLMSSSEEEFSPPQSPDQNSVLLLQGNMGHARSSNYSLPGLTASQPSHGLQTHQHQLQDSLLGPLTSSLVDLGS
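Six1/Eya2 binding was read as AlphaScreen signal after compounds were pinned into GST-Six1 plus His-tagged Eya2 (5X stock 250/500 nM) in pH 8.0 Tris/NaCl/TCEP buffer, beads added, then incubated 1 h, 37 C, dark.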
D2 potentiator = Beta-Arrestin HTS for Positive Allosteric Modulators of the Human D2 Dopamine Receptor: Potentiators; D(2) dopamine receptor (Homo sapiens), P14416; DiscoveRx D2 beta-arrestin cells, luminescence, 90 min; 100% = 57 uM dopamine signal; potentiation, % (no concentration beside the values); 360,000 compounds, 0.23% hits; AID 624464, 2012; active = potentiation of 50% or more; inconclusive = 30% to 50%; inactive = 30% or less;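 further: compound concentration not given in the record; tested on top of an EC20 dose of dopamine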
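PathHunter beta-arrestin assay in DiscoveRx D2 cells. Compounds were added with an EC20 of dopamine (50 nM final) for 90 min at 37 deg C. Luminescence was read 1 h after detection reagent, with 57 uM dopamine as the EC100 control.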
PINK1 expr mod = A Quantitative High throughput Screen to Identify Chemical Modulators of PINK1 Expression. PINK1 immunofluorescence, high-content cytometry, 24 h. Potency, µM (titrated, usually from 76.6 µM), inactives show at the top dose activation (PINK1 increase), most hits filed as activators. 410,000 compounds, 0.2% hits; active = well fitted activation curve with a large enough effect; inconclusive = small, poorly fitted or top-dose-only effect; inactive = flat fitted curve, though single readings scatter; cell line not stated here;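 further: potency means the concentration at half of the fitted maximal effect; % of control where 0% means no effect; nearly all actives have a fitted effect of over 65% in size; a mitochondrial uncoupler was the plate control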
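Measures PINK1 amount and localization on or inside mitochondria by immunofluorescence. Stable cells get compounds at 5 concentrations for 24 hours before fixation and staining; CCCP controls included.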
Numbers without * were called inactive; u = inconclusive; x = no result given; & = joins results of further samples; [ ] = remark or other dose.

SMILES	TRPML1 inh	D2 agonist	TRPML1 agonist	Six1-Eya2 blk	D2 potentiator	PINK1 expr mod
CN1CCN(c2ccc(NC(=O)c3ccc4ccccc4c3)cc2)CC1	-1	-0.1	0.3	-7	-3	3.5%
Cc1c(C)n2c(SCC(=O)NC3CCCC3)nnc2[nH]c1=O	5	-4.3	0.9	-7	2	1.2%
Cc1nc2ccccc2n1/N=C/c1ccc([N+](=O)[O-])s1	10	2.0	-0.4	3	16	u
CCC(CC)NC(=O)CSc1nnc(-c2c[nH]c3ccccc23)o1	40	3.4	-0.3	-3	-1	4.4%
CNc1nc(N/N=C/c2cc([N+](=O)[O-])ccc2F)nc(Nc2ccccc2)n1	55	0.2	0.5	5	-17	-1.9%
CCOC(=O)c1nc(Nc2ccccc2CC)c2ccccc2n1	7	0.5	0.2	-5	1	0.2%
COc1cc(NC(=O)C(NS(=O)(=O)c2ccc3c(c2)CCCC(=O)N3)C(C)C)cc(OC)c1 (stereo unspecified)	8	x	-0.2	x	x	0.9%
Cc1ccccc1Nc1nc(N2CCOCC2)nc(N2CCOCC2)n1	8	-4.9	-0.6	5	-10	-0.7%
CCn1ccnc1CN(C)C(=O)CCc1nnc(CCC2CCCCC2)o1	29	-2.1	0.9	0	-1	-1.2%
O=C(CNC(=O)c1ccccc1F)NCCCN1CCCC1=O	-7	1.6	0.4	5	2	1.3%
COc1ccc(C2=Cc3ccccc3C(CC(=O)C3CC3)N2c2ccc(C#CCCO)cc2)cc1 (stereo unspecified)	x	x	-0.4	-1	x	1.1%
COc1ccc(CCN2CC(C(=O)OCC(=O)N(C)CC(=O)Nc3ccccc3Cl)CC2=O)cc1OC (stereo unspecified)	-6	-2.6	1.1	3	-3	0.0%

(further entries)
SMILES	TRPML1 inh	D2 agonist	TRPML1 agonist	Six1-Eya2 blk	D2 potentiator	PINK1 expr mod
CCC(=O)Nc1ccc(S(=O)(=O)Nc2cccnc2)cc1	-7	1.3	1.1	9	4	-4.0%[38.3 µM]
C/C(=N/NC(=O)Cc1ccccc1)c1ccc(C)s1	9	-3.9	-0.8	0	-5	2.0%
CCc1ccccc1NS(=O)(=O)c1ccc2c(c1)C(C)(C)C(=O)N2C	2	-2.7	-0.2	4	1	1.6%
CC1CCCC(NC(=O)c2cccc(S(=O)(=O)N3CCN(c4ccccc4)CC3)c2)C1C (stereo unspecified)	6	0.1	3.9	0	-17	23%
Cc1ccc(NC(=O)CSc2nnc(Cc3ccccc3)c(=O)[nH]2)c(C)c1	-11	-5.3	-0.3	-9	-8	0.1%
Cc1cc(NC(=O)C(C)SCC(=O)Nc2ccccc2OC(F)F)no1 (stereo unspecified)	53	-4.5	1.0	7	-18	-2.5%
CN(Cc1ccc2nonc2c1)Cc1nc(CC2CC2)no1	26	-4.5	0.9	8	-4	2.2%
COc1ccc(/C=C/C(=O)NC2CCN(Cc3ccccc3)CC2)cc1OC	11	-3.4	0.0	-3	-18	-1.3%
CCCc1cc(C(=O)NCc2ccco2)no1	0	-3.4	-0.2	-2	-6	1.3%
COc1ccccc1NC(=O)Nc1ccc(NC(=O)c2ccccc2O)cc1	16	-2.4	2.0	-13	-20	1.5%
CC(OC(=O)CNC(=O)c1ccc(Cl)c(Cl)c1)C(=O)N1CCOCC1 (stereo unspecified)	0	-3.1	-0.5	0	19	-0.6%
CCN(CC(=O)Nc1c(F)cccc1F)C(=O)CSCc1c(C)noc1C	7	-3.8	0.0	2	-1	-3.9%

A portion of the results above, for reference:
SMILES	TRPML1 inh	D2 agonist	TRPML1 agonist	Six1-Eya2 blk	D2 potentiator	PINK1 expr mod
CCC(=O)Nc1ccc(S(=O)(=O)Nc2cccnc2)cc1	-7	1.3	1.1	9	4	-4.0%[38.3 µM]
C/C(=N/NC(=O)Cc1ccccc1)c1ccc(C)s1	9	-3.9	-0.8	0	-5	2.0%

The listing continues:
SMILES	TRPML1 inh	D2 agonist	TRPML1 agonist	Six1-Eya2 blk	D2 potentiator	PINK1 expr mod
CCC1CCCCN1C(=O)CSc1nnc(-c2ccc(OC)c(OC)c2)o1 (stereo unspecified)	33	x	-0.4	x	x	1.7%
COc1ccc(CNC(=O)c2cnc(C)cn2)cc1	4	-4.4	-0.9	-2	-20	-1.0%
CCCOC(=O)c1ccc(NC(=O)C2C3CCC(C3)C2C(=O)O)cc1 (stereo unspecified)	-11	-0.5	-0.2	14	-13	4.1%
O=C1CSC(c2cccnc2)N1Cc1cccnc1 (stereo unspecified)	1	-2.4	1.2	-4	7	-0.1%
CCC(=O)Nc1nc2ccc([N+](=O)[O-])cc2s1	-14	-2.2	-0.5	3	-5	1.6%
COC(=O)/C(=C/c1ccc(OC)cc1)NC(=O)c1ccco1	-18	-0.8	0.3	6	4	2.0%
Fc1cccc(Cl)c1CSc1nnc(CN2CCOCC2)n1-c1ccccc1	-28	-0.1	-1.0	0	5	-2.0%
Cc1nn(CC(=O)OCC(=O)NCCc2ccc(S(N)(=O)=O)cc2)c(C)c1[N+](=O)[O-]	1	-3.5	-0.5	6	2	0.6%
Cc1c(N2C(=O)C(=O)/C(=C(/O)c3ccc(Cl)cc3)C2c2ccccc2)c(=O)n(-c2ccccc2)n1C (stereo unspecified)	0	0.2	-0.4	-4	1	0.9%
COc1ccc(OC)c(NC(=O)c2cc(-c3ccc(Cl)s3)nc3ccccc23)c1	-6	x	-0.6	x	x	1.4%
COc1cccc(/C=C/c2nc(C#N)c(NCC(C)C)o2)c1	0	4.4	0.3	26	-3	0.9%
CCN(CC)C(=O)Cn1c(=O)n(CCCCCC(=O)NCc2ccccc2)c(=O)c2sccc21	-12	x	0.4	x	x	2.7%

The listing continues:
SMILES	TRPML1 inh	D2 agonist	TRPML1 agonist	Six1-Eya2 blk	D2 potentiator	PINK1 expr mod
N#Cc1ccccc1Cn1c(=O)n(CCCCC(=O)NCc2ccc3c(c2)OCO3)c(=O)c2ccccc21	0	x	-0.6	x	x	2.0%
C[C@H](CO)N1C[C@H](C)[C@@H](CN(C)C(=O)Nc2ccc(F)cc2)OCc2cnnn2CCCC1=O	27	-1.6	1.0	7	6	3.3%
C[C@@H]1CN([C@H](C)CO)C(=O)c2cc(NC(=O)NC3CCCCC3)ccc2O[C@H]1CN(C)S(C)(=O)=O	-4	-2.1	-0.6	-6	0	1.1%
COc1ccc(S(=O)(=O)N2CCCc3ccccc32)cc1OC	x	3.6	x	8	-4	1.9%
Cc1cccc(S(=O)(=O)NC(=O)C2(C)CCN2C(=O)Cc2ccccc2)c1 (stereo unspecified)	x	-1.2	-0.3	8	-6	-0.3%
COCCn1c(SCC#N)nnc1-c1ccc(OC)cc1	18	2.1	0.1	0	-5	x
Cc1ccc(N2C(=O)C3CC(c4ccccc4)=C4C5C=CC(C6C(=O)N(c7ccc(C)cc7C)C(=O)C56)C4C3C2=O)c(C)c1 (stereo unspecified)	7	-0.6	2.1	-2	-13	2.6%
O=C(CN(Cc1cccs1)C(=O)CNS(=O)(=O)c1ccccc1)NCc1ccco1	-5	-0.1	-1.7	-5	-19	3.7%
CC(OC(=O)Cc1ccc(F)cc1)C(=O)NCc1ccc2c(c1)OCO2 (stereo unspecified)	11	-6.9	-0.1	6	-2	-2.1%
Cc1c(Cl)cccc1N1C(=O)CC(NNC(=O)c2cccnc2)C1=O (stereo unspecified)	-14	-3.1	-0.6	-3	-27	2.3%
CCCC[C@@H]1CCCO[C@@](C(=O)NCc2ccccn2)(C(F)(F)F)C1	-27&9	-6.0	0.6&1.2	-5	-9	7.3%
CCOc1ccc(Cc2noc3c2C(=O)CC(C)(C)C3)cc1OCC	12	-0.5	1.3	4	-2	4.9%

The list continues.
SMILES	TRPML1 inh	D2 agonist	TRPML1 agonist	Six1-Eya2 blk	D2 potentiator	PINK1 expr mod
CC(=O)C1=CCC(c2ccco2)N(S(=O)(=O)c2ccc(C)cc2)C1 (stereo unspecified)	11	-5.9	-0.3	-4	-2	1.1%
COc1ccccc1CNC(=O)/C=C/c1ccc(S(=O)(=O)N2CCOCC2)cc1	19	2.9	0.0	8	-34	0.1%
Cc1ccc(NC(=O)C2CCN(c3nc4ccccc4nc3C(F)(F)F)CC2)cc1C	3	x	-0.3	x	x	-1.1%
CCCc1cc(-c2nc(N)ncc2-c2ccc3c(c2)OCCCO3)c(O)cc1OC	-1	-0.5	3.4	u	-29	-2.5%
CC(c1ccncn1)N(C)Cc1nc(-c2ccc(C(F)(F)F)cc2)no1 (stereo unspecified)	-3	-0.4	1.1	1	-4	2.0%
COCCNC(=O)/C(C#N)=C/c1ccccc1Br	20	-2.3	0.2	10	0	8.1%
O=C(NCC1CCCO1)C(c1ccc(F)cc1)N(CCCN1CCOCC1)C(=O)c1ccc(-c2ccccc2)[nH]1 (stereo unspecified)	3	-6.8	-1.0	-8	-9	0.5%
COc1cccc(NC(=O)CN(C)C(=O)c2ccc(OCc3ccccc3)c(OC)c2)c1	-5	-4.2	-0.8	-5	5	6.2%
Cc1ccc2[nH]cc(C(=O)CCl)c2c1	-12	0.2	-0.1	15	-4	-4.3%
CCCCc1ccc(S(=O)(=O)NC(=O)C2(C)CCN2C(=O)C/C=C/c2ccccc2)cc1 (stereo unspecified)	x	-2.9	-0.3	-6	4	2.2%
COc1ccccc1C(=O)CN1C(=O)NC2(CCCc3ccccc32)C1=O (stereo unspecified)	-1	-2.3	-0.6	-4	-3	0.8%
CC(=O)N(C)N(C)c1cc(C)nc(N)n1	21	1.4	0.8	14	-3	0.5%

(cont.)
SMILES	TRPML1 inh	D2 agonist	TRPML1 agonist	Six1-Eya2 blk	D2 potentiator	PINK1 expr mod
COC(=O)c1nnn(CC(=O)Nc2cccc(OC)c2)c1C(=O)OC	2	4.6	1.8	-1	-4	-0.3%
CCCS(=O)(=O)N1CC(=O)N(c2cccc(F)c2)C(C)(C(=O)NC2CCCCCC2)C1 (stereo unspecified)	-16	x	0.4	x	x	0.4%
COc1ccc(-n2cc(C(=O)NCc3ccccc3Cl)c3ccccc3c2=O)cc1	-5	x	0.3	x	x	5.4%
O=C(CCCOc1ccccc1)N1CCN(S(=O)(=O)c2cccc(F)c2)CC1	17	-1.0	-0.4	7	-4	1.3%
COc1cc(OC)cc(-c2c(Sc3ccccc3)c3cc(-c4cnc(N5CCOCC5)nc4)ccc3n2C)c1	x	x	-0.1	7	x	0.6%
CCc1cc(=O)oc2cc(OCC(=O)OC)c(Cl)cc12	7	-3.6	2.1	-3	-7	-1.7%

Compounds were not picked by outcome. Share with any hit: about 1%.
